VACV Venus inh: inhibitors of vaccinia virus (Venus reporter). Vaccinia virus Venus reporter expression, fluorescence. Potency, µM (top dose mostly 36.5 µM), inactives show at the highest dose activity change, negative = inhibition, most hits filed as inhibitors. 330,000 tested, 0.46% active. AID 720580; active means well fitted inhibition curve with a large enough effect; inconclusive means small, poorly fitted or top-dose-only effect; inactive means no such curve, though single readings can be large or run the other way; tested in A549 cells; note: nearly all actives have a fitted effect of over 30% in size; inactives centre near -10
VACV mCherry inh: vaccinia inhibition (mCherry reporter); Vaccinia virus mCherry reporter infection, fluorescence; about a quarter of the inactives have no number; Potency, µM (doses to about 36.5 µM), for the others: at the top dose activity change, negative = inhibition, usual class: inhibitors; 310,000 tested, 0.63% active; AID 720579; active = well fitted inhibition curve with a large enough effect; inconclusive = small, poorly fitted or top-dose-only effect; inactive = no such curve, though single readings can be large or run the other way; tested in A549 cells; note: nearly all actives have a fitted effect of over 35% in size; inactives centre near -10
* = called active by the depositor; i = inactive; ? = inconclusive; . = not tested or not shown; [ ] = dose if it differs, or a comment. % is set by controls: 0 for no effect and ±100 for the full control effect; potency is the fitted concentration of half-maximal effect.

#1 CCCCC/C=C\C[C@@H](/C=C/C=C\C/C=C\CCCC(=O)O)OO
#2 CCCCCCCC(=O)NNC(=O)c1c(O)c2ccccc2n(CCC)c1=O
#3 CC(Sc1nnc(C2CC2)n1C1CC1)C(=O)c1ccc(Br)cc1 (stereo unspecified)
#4 O=c1[nH]c(SCc2ccccc2)ncc1S(=O)(=O)c1ccccc1
#5 COc1ccc2c(c1)[C@H]1[C@H](CO2)[C@H](c2ccccc2)[C@]2(C)C(=O)Nc3cc(F)ccc3C(=O)N12
#6 Cc1cc(SCC(=O)NC(=O)NCc2ccco2)nc2c(C)cccc12
#7 N#Cc1nc(-c2ccco2)oc1N1CCC(C(N)=O)CC1
#8 O=C(Nc1ccccc1)N1CCN(S(=O)(=O)c2ccccc2)CC1
#9 Cn1ncc2c(Nc3cccc(C(=O)O)c3)ncnc21
#10 CCOC(=O)c1cc(-c2ccccc2)nn1Cc1cc(C)no1

| Assay by compound | 1 | 2 | 3 | 4 | 5 | 6 | 7 | 8 | 9 | 10 |
| --- | --- | --- | --- | --- | --- | --- | --- | --- | --- | --- |
| VACV Venus inh | -11%[0.293 µM] | 2% | -12% | -10% | -28% | -5% | -12% | -15% | -5% | -14% |
| VACV mCherry inh | i[0.293 µM] | i | -2% | -7% | ? | -6% | . | -18% | -9% | -2% |

#11 CCOC(=O)c1ccc(NC(=S)NC(=O)COc2ccccc2)cc1
#12 Fc1c(F)c(F)c(N/N=C/c2c[nH]c3ccccc23)c(F)c1F
#13 O=C(OCn1nnc2ccccc2c1=O)C1COc2ccccc2O1 (stereo unspecified)
#14 O=C(/C=C/c1ccc(Br)o1)OCc1ccccc1
#15 CCN1CCN(c2ccc(NC(=O)c3ccco3)cc2Cl)CC1
#16 N#CC1=C(N)OC2=C(C(=O)CCC2)C1c1ccc(OC(=O)N2CCOCC2)cc1 (stereo unspecified)
#17 O=C1c2ccccc2C(=O)N1CCCON1C(=O)c2ccccc2C1=O
#18 CC1CCC2C(C)(C)C3CC12CC[C@]3(C)O (stereo partly specified)
#19 COc1ccc(C2N=C(N)N=C(N)N2c2ccccc2)cc1OC (stereo unspecified)
#20 Oc1ccc(-c2nccc(-c3ccc(Cl)cc3Cl)n2)cc1

| Assay by compound | 11 | 12 | 13 | 14 | 15 | 16 | 17 | 18 | 19 | 20 |
| --- | --- | --- | --- | --- | --- | --- | --- | --- | --- | --- |
| VACV Venus inh | -14% | ? | -9% | -1% | -5% | -5% | -8% | -7% | -10% | -28% |
| VACV mCherry inh | i | ? | -7% | -8% | -11% | -15% | i | -3% | -29% | -18% |

Part of the list above in order of count of non-hydrogen atoms, smallest number first.
#18 CC1CCC2C(C)(C)C3CC12CC[C@]3(C)O (stereo partly specified)
#10 CCOC(=O)c1cc(-c2ccccc2)nn1Cc1cc(C)no1
#1 CCCCC/C=C\C[C@@H](/C=C/C=C\C/C=C\CCCC(=O)O)OO
#11 CCOC(=O)c1ccc(NC(=S)NC(=O)COc2ccccc2)cc1
#2 CCCCCCCC(=O)NNC(=O)c1c(O)c2ccccc2n(CCC)c1=O

| Assay by compound | 18 | 10 | 1 | 11 | 2 |
| --- | --- | --- | --- | --- | --- |
| VACV Venus inh | -7% | -14% | -11%[0.293 µM] | -14% | 2% |
| VACV mCherry inh | -3% | -2% | i[0.293 µM] | i | i |

(next part)
#21 O=C1CC(c2ccccc2)Sc2nc(-c3ccc(F)cc3)nn21 (stereo unspecified)
#22 Cc1cccc(C(=O)NNS(=O)(=O)c2ccc(F)cc2)c1O
#23 O=C(NC(N1CCCCCC1)C(Cl)(Cl)Cl)c1ccccc1Cl (stereo unspecified)
#24 CC(C)(C)c1ccc(/C=N/Nc2nncn2N)cc1
#25 CCOc1ccc(C(=O)Nn2cnnc2)cc1
#26 O=C(NCc1ccco1)C1CCCN1C(=O)Nc1ccc(Br)cc1 (stereo unspecified)
#27 CCc1ccc(OCC(=O)Nc2cc(S(=O)(=O)CC)ccc2O)cc1
#28 COc1ccccc1-c1cc(C(F)(F)F)nc(N2CCN(c3ccc(F)cc3)CC2)n1
#29 COCCN(Cc1cc2ccc(C)cc2[nH]c1=O)S(=O)(=O)c1ccccc1
#30 COc1cc2c(cc1NC(=S)Nc1cccc(C(F)(F)F)c1)oc1ccccc12

| Assay by compound | 21 | 22 | 23 | 24 | 25 | 26 | 27 | 28 | 29 | 30 |
| --- | --- | --- | --- | --- | --- | --- | --- | --- | --- | --- |
| VACV Venus inh | 10% | -11% | -4% | ? | -8% | -3% | -10% | 1% | -12% | -23% |
| VACV mCherry inh | -6% | i | -7% | ? | i | i | -13% | 3% | -2% | ? |

One compound at a time, from the list above. Order of screens: VACV Venus inh | VACV mCherry inh
Shown for `Oc1ccc(-c2nccc(-c3ccc(Cl)cc3Cl)n2)cc1` = -28% | -18%
Shown for `COc1cc2c(cc1NC(=S)Nc1cccc(C(F)(F)F)c1)oc1ccccc12` = -23% | ?

Going on with the list:
#31 Cc1ccc(Cl)cc1N1CCN(C(=O)c2cn(C3CCCCC3)c(=O)c3c2c2ccccc2n3C)CC1
#32 CC(C)N(Cc1ccccc1)S(=O)(=O)c1ccc(-c2cc(C(F)(F)F)on2)s1
#33 CCC1(C)Cc2ccccc2-c2nc3n(c(=O)c21)CCS3 (stereo unspecified)
#34 Cc1ccccc1OCC(=O)Nc1ccc2nc(SCC(=O)N3CCc4ccccc43)sc2c1
#35 CC(C)Oc1cccc(C(=O)NC(=S)Nc2cccnc2)c1
#36 CCc1noc(C)c1C(=O)Nc1nc2ccc(F)cc2s1
#37 C[C@@H]1CC[C@H](O)/C=C/C(=O)O[C@H](C)CC[C@H](O)/C=C/C(=O)O1
#38 COc1ccc(N2C(=O)[C@@H]3Cc4ccccc4CN3C2=O)cc1
#39 CN(Cc1cnn(-c2ccc(F)cc2)c1)Cc1nc(Cc2ccccc2)no1
#40 CCN(CC)C(=O)c1cccc(NC(=O)c2cc(-c3ccccn3)nc3ccccc23)c1

| Assay by compound | 31 | 32 | 33 | 34 | 35 | 36 | 37 | 38 | 39 | 40 |
| --- | --- | --- | --- | --- | --- | --- | --- | --- | --- | --- |
| VACV Venus inh | -15% | -8% | 3% | -4% | -14% | -10% | ? | -28% | 2% | -12% |
| VACV mCherry inh | -18% | -9% | -14% | -7% | -19% | -2% | ? | -15% | -6% | i |

#41 CCC(=O)Nc1sc2c(c1C(=O)Nc1ccccc1C)CCC(C)C2 (stereo unspecified)
#42 O=C(Nc1ccccc1F)c1c[nH]c(=O)[nH]c1=O
#43 O=C(CSCc1ccc(F)cc1)N1CCc2c([nH]c3ccccc23)C1c1ccccc1 (stereo unspecified)
#44 Cc1ccc(N2CCN(C(=O)c3cc(S(=O)(=O)N4CCCCC4)c[nH]3)CC2)c(C)c1
#45 CCOC(=O)C(=O)NCC(c1cccs1)S(=O)(=O)c1ccc(F)cc1 (stereo unspecified)
#46 O=C(CCCc1ccccc1)NC1CC(=O)N(c2ccc(F)cc2)C1 (stereo unspecified)
#47 O=C(Cc1ccc(Cl)cc1)Nc1ccccc1C(=O)N1CCCC1
#48 Cn1ccc2c(-c3cncc4ccccc34)cc3c(c21)C1CCC3C1 (stereo unspecified)
#49 CC(C)(C)C(=O)c1cnc(Nc2ccccc2)s1
#50 CCC(Sc1ccc(C(=O)O)cc1)C(=O)O (stereo unspecified)

| Assay by compound | 41 | 42 | 43 | 44 | 45 | 46 | 47 | 48 | 49 | 50 |
| --- | --- | --- | --- | --- | --- | --- | --- | --- | --- | --- |
| VACV Venus inh | 2% | 2% | -21% | -19% | 1% | -5% | -23% | -3% | ? | -10% |
| VACV mCherry inh | -12% | 7% | -19% | -28% | i | -9% | -3% | 27% | . | -11% |

Some values from the results shown:
Value of O=C(CSCc1ccc(F)cc1)N1CCc2c([nH]c3ccccc23)C1c1ccccc1 (stereo unspecified) under VACV Venus inh: -21%
Value of CCOC(=O)C(=O)NCC(c1cccs1)S(=O)(=O)c1ccc(F)cc1 (stereo unspecified) under VACV Venus inh: 1%
Value of O=C(Nc1ccccc1F)c1c[nH]c(=O)[nH]c1=O under VACV mCherry inh: 7%
Value of CCC(Sc1ccc(C(=O)O)cc1)C(=O)O (stereo unspecified) under VACV Venus inh: -10%

The results go on:
nr	smiles	VACV Venus inh	VACV mCherry inh
51	COc1ccccc1-n1cnnc1SC(C)C(=O)Nc1cccc([N+](=O)[O-])c1 (stereo unspecified)	-3%	-5%
52	CCCOc1ccc(C2=NC(c3ccc(F)cc3)=Nc3ccc(OC)cc3N2)cc1	-13%	-7%
53	CCOC(=O)c1nnn2c1nc(SCC(C)=O)c1ccccc12	-6%	-26%
54	COc1ccc(OC)c(C(=O)c2ccc(C(=O)Nc3cccc4ccccc34)cc2)c1	-10%	i
55	CCn1nnc2cc(C(=O)Nc3cccc(C(F)(F)F)c3)ccc21	-4%	-8%
56	Cc1c2cnn(CC(=O)NCCN3CCOCC3)c(=O)c2c(C)n1Cc1ccccc1F	-4%	?
57	Cn1ccnc1Sc1cc(NCCCO)c([N+](=O)[O-])c2nonc12	13%	-4%
58	Cc1ccc(NC(=O)CSc2nnc(Cc3ccccc3)c(=O)[nH]2)c(C)c1	-6%	-9%
59	C1=C(c2ccccc2)N2CCN=C2S1	-9%	-12%
60	O=C(NNC(=S)NC(=O)c1ccccc1[N+](=O)[O-])c1ccccc1	-13%	.
61	Cc1ccc(OCCCCn2c(CCNC(=O)C(C)(C)C)nc3ccccc32)cc1	-19%	-14%
62	c1ccc(C2CNCc3c2ccc2ccccc32)cc1 (stereo unspecified)	?	-13%
63	Cc1nnc(NC(=O)CSc2nnc(CNC(=O)c3ccccc3)n2-c2ccccc2)s1	2%	i
64	O=C(NC(C(=O)N/N=C/c1ccccn1)c1n[nH]c(=O)c2ccccc12)c1ccccc1 (stereo unspecified)	-4%	-10%
65	CCCCc1nnc(NC(=O)c2nc3nccc(C)n3n2)s1	-2%	-17%
66	CC1=C(C(=O)Nc2cccnc2)C(c2ccc3c(c2)OCO3)C2=C(CCCC2=O)N1 (stereo unspecified)	-8%	-16%
67	Cc1sc2nc(SC3CCOC3=O)n(Cc3ccccc3)c(=O)c2c1C (stereo unspecified)	5%	-1%
68	COC(=O)C1=C(c2ccc(F)cc2F)C[C@@H]2CC[C@H]1N2C(=O)NCCOc1ccc(OC)cc1	?	-12%
69	CCCC(=O)Nc1cc(C)c2c(=O)oc3ccccc3c2n1	-6%	18%
70	CC(=O)Nc1cccc(Nc2cnccn2)c1	0%	i
71	CCCCC(=O)NS(=O)(=O)c1ccc(N=NN2CCOCC2)cc1	5%	i
72	CCC(C)NC(=O)CC(c1ccc(OC)cc1)n1cccc1 (stereo unspecified)	-11%	i
73	CCc1cc2c(cc3c(=O)n(CCCC(=O)NCc4cccc(Cl)c4)ncn32)s1	?	?
74	CC(C)(C)C(=O)C[n+]1ccc(C(N)=O)cc1	4%	-14%
75	COC(=O)C(c1ccccc1)N(Cc1cccc(CN(C(C(=O)OC)c2ccccc2)S(C)(=O)=O)c1)S(C)(=O)=O (stereo unspecified)	-14%	-2%
76	Cc1ccn2c(Nc3ccc(C(C)C)cc3)c(-c3cccnc3)nc2c1	-24%	-24%
77	CC1(c2nnc(-c3ccccc3)o2)CC(c2ccc(Cl)cc2)=NO1 (stereo unspecified)	-10%	-12%
78	COc1cc(C(=O)NC(C)C2CC3CCC2C3)cc(OC)c1OC (stereo unspecified)	?	?
79	Cc1ccc(CSc2nnc(SCC(=O)N/N=C/c3c[nH]c4ccccc34)s2)cc1	-10%	i
80	CC(C)CN(C(=O)CCC(=O)OCC(=O)c1ccc(F)c(F)c1)c1c(N)n(CC(C)C)c(=O)[nH]c1=O	-13%	-27%

Along the list, from the results shown:
Compounds 72–75 in VACV Venus inh read -11%, ?, 4%, -14%

The listing continues:
nr	smiles	VACV Venus inh	VACV mCherry inh
81	Cc1cccc(-c2noc(CNC(=O)c3ccccc3Br)n2)c1	-4%	-2%
82	CO/N=C\CC(=O)Nc1ccc(Oc2ccccc2)cc1	-10%	?
83	Cc1nc2c(=O)[nH]c3ccccc3c2o1	-5%	6%
84	COc1ccc(CCNC(=O)Cc2ccc(OCc3ccccc3)c(OC)c2[N+](=O)[O-])cc1OCc1ccccc1	-18%	-18%
85	CN(CC(=O)Nc1ccc(N2CCOCC2)cc1)C(=O)c1cccc(Cl)c1Cl	-10%	i
86	CCC(Sc1nc2ncccc2[nH]1)C(=O)Nc1ccccc1F (stereo unspecified)	2%	-1%
87	O/N=C/c1cn(-c2ccccc2)nc1-c1cccnc1	-14%	i
88	CCOC(=O)c1nc2ccccc2c(=O)[nH]1	-16%	-8%
89	C=CCNC(=O)c1ccc2c3n(nc2c1)-c1ccc(Cl)cc1CO3	-29%	-11%
90	COc1cccc(OCC(=O)NNC(=O)C(=O)N2CCCC2)c1	-14%	-1%
91	CC(=O)O[C@H]1[C@H](O)[C@H](Oc2c(O)c(C)c3c4c2[C@@H](C)CC[C@@H]4[C@@H](C)C[C@H]3C=C(C)C)O[C@@H](C)[C@H]1O	?	-11%
